Bead autofluor = flagged as autofluorescent in microsphere protease counterscreen; fluorescence intensity (test concentration not listed); 360,000 tested, 3.1% active; compound autofluorescence counterscreen, microsphere flow cytometry; hits give high values;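 active means at least 3 SD above the mean of all compounds, about 16000 in these data; inconclusive means too few beads counted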;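 further: 100 nL of 1 mM stock went into each well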
ugtP null kill = growth inhibition of S. aureus ugtP deletion strain. S. aureus RN4220 ugtP deletion, OD600 growth, 16 h; some inactives read as strong as hits. growth inhibition, % (test concentration not listed). 330,000 tested, 0.54% active. AID 1259309;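 active means z-score under -3 and OD600 up to 0.15 on both plates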;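 further: plate controls were untreated wells for no effect and antibiotic for full effect; wells of about 80 µL received 100 nL stock; the first replicate is given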
RN4220 kill = kills Staphylococcus aureus RN4220; S. aureus RN4220 growth, OD600, 16 h; inhibition, % (test concentration not listed); 330,000 tested, 0.33% active; AID 1259311;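 active means z-score of -3 or lower and OD600 up to 0.18 on both plates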;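 further: plate controls were untreated cells for no effect and reference antibiotic for full effect; stock transfer was 100 nL into about 80 µL; one replicate is shown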
Mtb hypoxia inh = Mtb hypoxia fluorescent reporter inhibition; M. tuberculosis hypoxia-regulated fluorescent reporter, fluorescence; 300,000 tested, 0.1% active; fluorescence inhibition, % (no concentration beside the values);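 active means 35 to 45% if threefold the growth effect, above 45% if 1.5-fold the growth effect; inactive means the rest, general growth blockers included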;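 further: wells of about 50 µL received 100 nL stock; 0% = vehicle wells and 100% = reference inhibitor wells; whole bacteria with a GFP reporter of the hypoxia response; strong numbers were not always called active; many hits fall short of the cut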
BJeLR lethal = BJeLR cell viability loss | BJeLR (HRASV12) viability, CellTiter-Glo ATP luminescence, 48 h; reference of the scale not given here | inhibition, % (test concentration not listed) | 300,000 tested, 0.17% active;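 active means replicate mean above 50%; inconclusive means above 50% but judged a plate artefact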;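 further: 50 nL library stock added to about 25 µL; numbers are from one replicate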
PrP UTR inh = suppresses PrP 5' UTR mRNA reporter expression; cell-based PrP 5' UTR mRNA reporter, plate reader; inhibition, % (no concentration beside the values); 340,000 tested, 0.35% active;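 active means every replicate at 50% or more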;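 further: 0 = median of the neutral control wells; tested in H4 reporter cells; numbers are from one replicate; inactives centre near -14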
Mtb hypoxia inh growth = second read-out of Mtb hypoxia inh, no call of its own (marks repeat the call); growth inhibition, %; measured here: M. tuberculosis growth (absorbance);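 0% = vehicle and 100% = reference antibiotic; read after six days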
Active calls of the source: *; ? = inconclusive; · = not tested or not shown; & = joins results of further samples. Rows are unselected; overall some 4% were active at least once.

SMILES	Bead autofluor	ugtP null kill	RN4220 kill	Mtb hypoxia inh	Mtb hypoxia inh growth	BJeLR lethal	PrP UTR inh
COc1ccc(N2C(=O)c3ccc(C(=O)OC(C)C)cc3C2=O)cc1	3570	-5	-5.4	-2	6	8	-5
CC(C)Sc1nnc(CNC(=O)C23CC4CC(CC(C4)C2)C3)n1Cc1ccccc1	2566	-5	7.8	6	2	-1	-5
Cc1cccc(-c2nc(CS(=O)CC(=O)N3CCc4ccccc4C3)c(C)o2)c1 (stereo unspecified)	5303	14	3.0	·	·	-3	-6
COc1ccc(C2=NOC(C(=O)N3CCOCC3)C2)cc1OC (stereo unspecified)	23787*	-1	2.4	-1	11	0	-5
CN(C)C(=O)c1cc(Cl)ccc1Sc1cc(Cl)ccc1Cl	2574	7	-0.3	·	·	2	-14
C#CCOCCOCCOCCNc1nc(N2CCN(C(=O)[C@H](CCCN=C(N)N)n3cc(C(N)[C@@H](C)CC)nn3)CC2)nc(N2CCN(C(=O)[C@H](CCCCN)n3cc([C@@H](N)CC(N)=O)nn3)CC2)n1 (stereo partly specified)	3109	-2	-8.8	12	2	·	-30
Cc1ccc(-c2nnn(CC(=O)N(c3ccccc3F)C(C(=O)NC3CCCC3)c3ccco3)n2)o1 (stereo unspecified)	16059	-15	-4.1	-6	9	-14	-16
COc1ccccc1CNC1CCCc2ccccc21 (stereo unspecified)	4046	8	6.1	13	10	3	-25
CCC(=O)Oc1ccc(/C(CC)=C(\CC)c2ccc(OC(=O)CC)cc2)cc1	4222	·	·	·	·	-12	-9
CCNC(=S)Nc1ccc(Cc2nc3ccccc3[nH]2)cc1	4184	5	5.4	22	8	3	-16
C=CCC1NS(=O)(=O)OC(CCCC)C1O (stereo unspecified)	3617	-2&1	2.8&6.6	-7&0	-5&2	-7	-22
CN(Cc1nc2ccccc2c(=O)[nH]1)C(=O)c1cccc(S(=O)(=O)N2CCc3ccccc32)c1	8593	2	3.4	6	12	·	-7
O=C(c1ccc(Br)c(S(=O)(=O)N2CCCCC2)c1)N1CCCCC1	5904	8	5.0	-2	-3	-2	-17
Cn1c(=O)c(=O)n(C)c2cc(S(=O)(=O)CCC(=O)Nc3ccc(C(F)(F)F)cc3)ccc21	4088	20	5.5	8	5	2	-7
CCn1c(NCc2ccccc2Cl)nc2ccccc21	2982	1	-2.6	-3	1	-9	-20
O=c1[nH]c(/C=C/c2ccccn2)nc2ccccc12	3630	1	5.1	12	21	5	-89
COc1ccc(S(=O)(=O)N2Cc3ccccc3CC2C(=O)O)cc1OC (stereo unspecified)	5094	-15	2.0	·	·	-11	-2
C/C(=N/NC(=O)c1ccccn1)c1ccc(O)cc1	4438	·	·	·	·	-10	-45
CCc1nnc2sc(-c3cc(-c4ccccc4)nc4ccccc34)nn12	19922*	-13	3.8	12	-18	-20	-21
O=C(Cn1ncc2ccccc21)N1CCC2(CC1)OCCO2	8292	9	3.2	0	11	0	-6
Cc1[nH]n(-c2cccc3ccccc23)c(=O)c1/C=N/NC(=O)c1cccc([N+](=O)[O-])c1	10125	·	·	·	·	6	-44
Cc1ccc(S(=O)(=O)NN=C2CC(=O)CC(C)(C)C2)cc1[N+](=O)[O-]	·	22	5.0	-5	5	·	·
O=C(CCc1nc2ccccc2s1)NCc1ccccc1F	3636	-2	0.3	0	-5	11	-16
O=C(O)CN1C(=O)NC2(CCOc3ccccc32)C1=O (stereo unspecified)	4106	11	2.9	9	0	5	-14
O=C(c1cnn2c(C(F)(F)F)cc(-c3cccs3)nc12)N1CCN(C(c2ccccc2)c2ccccc2)CC1	3334	18	23	-11	8	3	-25
Following part:
SMILES	Bead autofluor	ugtP null kill	RN4220 kill	Mtb hypoxia inh	Mtb hypoxia inh growth	BJeLR lethal	PrP UTR inh
COc1ccc(OCCCN2CCc3ccccc3C2)cc1	3387	13	1.6	6	-8	-3	-17
CCOc1ccc(N(CC(=O)Nc2cccc(Br)c2)S(C)(=O)=O)cc1	3649	-6	2.8	11	6	1	-24
CCCCCc1ccc(-c2cn(Cc3cccc(OC)c3)nn2)cc1	4109	43	-2.7	7	4	8	-6
O=[N+]([O-])c1ccc(O)c(Nc2ncnc3ccc(Br)cc23)c1	4664	11	26	12	10	10	-38
Cc1ccc2c(CN3CCN(C(=O)c4ccco4)CC3)cc(=O)oc2c1C	4345	1	-0.1	-16	-15	-2	-33
CC1=Nc2ccccc2/C1=C/c1c(N)n2c(S(=O)(=O)C(C)C)nsc2nc1=O	2125	7	4.0	-12	2	0	-31
C#CCNC(=O)C1=C[C@@H](c2ccc(C#C)cc2)[C@H](CCCO)[C@@H](OCC)O1	4294	·	·	·	·	-6	-19
Nc1cccc(-n2nncc2-c2ccc(Cl)cc2)c1	·	-2	-7.0	0	8	10	·
Cc1nn2c(-c3cccc(NC(=O)CSc4nc5ccccc5o4)c3)nnc2c2ccccc12	3015	10	35	1	2	-2	-29
Cc1ccccc1S(=O)(=O)Cc1ccc(C(=O)NCCN2CCCCC2C)o1 (stereo unspecified)	6883	7	4.3	7	10	11	-9
O=C(Nc1cccc(C(F)(F)F)c1)c1csc(-c2ccncc2)n1	3646	10	14	0	-4	7	-7
COCCn1c(N)c(Sc2ccc(Cl)cc2)c(=O)[nH]c1=O	5406	7	0.8	0	10	-9	2
Fc1c(F)c(F)c(SCn2cc(Br)cn2)c(F)c1F	5868	1	5.0	2	-4	·	-6
COc1ccc(NC(=O)CCNC(=O)c2ccco2)c(OC)c1	5817	1	3.0	-3	-9	5	-9
CC(C)(C)c1ccc(CN2C(=O)CN=C(c3ccccc3)c3ccccc32)cc1	16337*	62	-4.1	8	2	1	2
CCN(CC)c1nc(-c2ccc(C(=O)NN)cc2)nc(-c2ccc(C(=O)NN)cc2)n1	3044	5	3.1	0	-10	-1	-25
NC(=O)c1nsc(C(=O)N(CC(=O)NC2CCCCC2)Cc2ccc(F)cc2)c1N	5797	0	-0.5	0	1	4	-2
CCOC(=O)SC1=N/C(=C\c2ccc(N(C)C)cc2)C(=O)S1	19076*	28	40	2	-8	-17	-8
COc1ccc2[nH]c(=O)c(CNc3ccccc3OC)cc2c1	5362	1	4.4	-1	3	-22	-19
FC(F)(F)c1cc(-c2ccccc2)nc(-n2cc(Cl)cn2)n1	4940	13	30	0	-5	20	-22
O=C(NCc1ccccc1Cl)C1CCN(S(=O)(=O)N2CCC3(CC2)OCCO3)CC1	7922	-1	5.9	11	7	-1	-35
CCCCC1=CC2=C(c3ccco3)C(=O)C(C)(OC(=O)c3ccc(OC)cc3)C(=O)C2=CN1CCc1ccccn1 (stereo unspecified)	4034	0	-1.3	-6	7	5	-11
COc1ccc(-n2c(C)cc(/C=C/c3nc(O)c([N+](=O)[O-])c(=O)[nH]3)c2C)cc1	4726	2	7.6	-5	7	0	-28
CN(C)/C=C1\N=C(c2ccccc2)OC1=O	1916	-8	-0.4	3	5	-3	-20
CC(=O)N(c1c(C)n(C)n(-c2ccccc2)c1=O)C1(C(=O)NC2CCCC2)CCCCC1	·	3	1.7	·	·	27	-23

Part of the list above, with two lines to a compound:
The line under a structure holds: Bead autofluor	ugtP null kill	RN4220 kill	Mtb hypoxia inh	Mtb hypoxia inh growth	BJeLR lethal	PrP UTR inh
> O=C(Nc1cccc(C(F)(F)F)c1)c1csc(-c2ccncc2)n1
 : 3646	10	14	0	-4	7	-7
> COCCn1c(N)c(Sc2ccc(Cl)cc2)c(=O)[nH]c1=O
 : 5406	7	0.8	0	10	-9	2
> Fc1c(F)c(F)c(SCn2cc(Br)cn2)c(F)c1F
 : 5868	1	5.0	2	-4	·	-6

Later entries:
SMILES	Bead autofluor	ugtP null kill	RN4220 kill	Mtb hypoxia inh	Mtb hypoxia inh growth	BJeLR lethal	PrP UTR inh
COCCc1nc2ccc(C(=O)N3CCCC(CCCO)C3)cc2o1 (stereo unspecified)	·	3	3.9	11	7	9	-22
CCSc1nnc2c(n1)OC(C)(C)Nc1ccccc1-2	9891	1	1.7	-14	-4	-4	-17
Cc1sc(-c2cccnc2)nc1OC(=O)C1CC1	4560	4	4.1	9	4	-3	-4
CCc1cc2ccc(C)cc2nc1SCC(=O)Nc1cc(C)on1	4141	8	5.2	14	2	-2	38
CCCCNc1nc2ccccc2nc1NS(=O)(=O)c1ccc(F)cc1	3893	5	14	16	8	-1	-5
CCOc1ccc(CNC(=O)C(=O)c2cn(CC(=O)N3CCOCC3)c3ccccc23)cc1OC	6251	2	2.6	-7	-6	-8	-7
COc1ccc(CNc2nc3ccccc3n2Cc2ccc(Cl)cc2)cc1OC	2349	-8	-4.0	-4	-7	-3	-2
O=C(CO/N=C/c1cccc([N+](=O)[O-])c1)NC1CCCCCC1	7066	·	·	·	·	-12	-11
CCS(=O)(=O)n1nc(-c2ccco2)nc1N	4630	-4	-1.6	3	5	1	-16
CC(=O)NS(=O)(=O)c1ccc(NC(=O)CSc2ccccc2)cc1	3908	4	2.9	2	-5	-1	·
CC(Oc1ccc(Cl)cc1)/C(N)=N/O (stereo unspecified)	3260	8	3.3	3	-4	-3	-4
CC(=O)N(CCc1ccccc1C)Cc1cc2cc3c(cc2[nH]c1=O)OCO3	3011	-8	-16	23	11	-8	-28
Cc1cc(C)cc(N2C(=O)CN(Cc3ccccc3)C2=S)c1	3791	6	9.1	10	8	7	-17
COc1ccc(OC)c(N(CC(=O)Nc2ccccc2)S(C)(=O)=O)c1	8627	4	3.1	9	6	-9	-17
COc1cccc(CN2CC(C(=O)N3CCCCCCC3)CCC2=O)c1 (stereo unspecified)	5448	2	1.9	7	9	6	-3
COC(=O)[C@@]12CCCCN1C(c1ccc(-c3ccc(F)cc3)c(OC)c1)C1C(=O)N(C)C(=O)C12 (stereo partly specified)	·	12&-3	30&-5.6	13&7	7&10	·	·
Cc1ccc(CN2CCN(CC(=O)NN=Cc3ccccc3F)CC2)cc1	·	0	-1.4	10	4	·	·
CCCS(=O)(=O)c1c(S(=O)(=O)CCC)c2c(C(N)=O)cccn2c1C(=O)c1ccc(F)cc1	4220	-2	2.4	10	6	8	-23
CCOC(=O)C1(Cc2cccc(Cl)c2)CCCN(C(=O)c2ccc(COC)s2)C1 (stereo unspecified)	6038	·	·	·	·	7	-11
CC(=O)Nc1ccc(OCCC[n+]2ccccc2)cc1	4580	4	0.0	7	-5	-3	49
CCN1CCCC1CNC(=O)c1csc2c1CCCC2 (stereo unspecified)	9607	0	0.6	-8	-9	0	-29
O=C(Nc1nnc(-c2cccs2)o1)c1cccc(Oc2ccccc2)c1	4258	100*	99*	5	2	·	-42
COc1ccc(C2N3CC(C)(C)CN23)cc1 (stereo unspecified)	·	0	8.7	9	2	2	·
O=C(NN=Cc1ccc([N+](=O)[O-])o1)C1CCCC1	·	8	20	-15	5	·	·
COC(=O)C1=C(c2ccc(Cl)c(C(F)(F)F)c2)CC2CCC1N2C(=O)N1CCCC1 (stereo unspecified)	·	-3	4.3	5	-2	·	·
(listing goes on)
SMILES	Bead autofluor	ugtP null kill	RN4220 kill	Mtb hypoxia inh	Mtb hypoxia inh growth	BJeLR lethal	PrP UTR inh
COc1ccc(Cl)cc1NC(=O)COC(=O)Cc1cc(OC)c(OC)c(OC)c1	2926	8	2.1	1	5	·	-16
COC(=O)c1cccc(OCC(O)Cn2cnc3cc(C)c(C)cc32)c1 (stereo unspecified)	?	-9	2.7	-10	-10	0	6
COc1ccc(CC(=O)NC(C)c2nnc(SCC(=O)Nc3ccccc3F)n2C)cc1 (stereo unspecified)	4487	3	10	-3	10	1	-27
CC1CN(C(=O)N2c3ccccc3Sc3ccccc32)C(C)CC1=O (stereo unspecified)	7949	-4	8.7	8	11	-2	-6
O=C(CN1CCOCC1)Nc1cccc(Cl)c1Cl	23826*	-6	3.9	-2	0	·	1
COc1nccnc1NS(=O)(=O)c1ccc(NC(=S)NC(=O)/C=C/c2ccc(F)cc2)cc1	2598	5	4.0	5	8	-6	-5
CCOCCCn1c(=S)[nH]c2cc(C(=O)NC3CCCCC3C)ccc2c1=O (stereo unspecified)	4576	14	4.3	4	1	-2	-8

Full records as entered above. Screens in order: Bead autofluor | ugtP null kill | RN4220 kill | Mtb hypoxia inh | Mtb hypoxia inh growth | BJeLR lethal | PrP UTR inh
COc1ccc(Cl)cc1NC(=O)COC(=O)Cc1cc(OC)c(OC)c(OC)c1 is listed as 2926 | 8 | 2.1 | 1 | 5 | · | -16
CCOCCCn1c(=S)[nH]c2cc(C(=O)NC3CCCCC3C)ccc2c1=O (stereo unspecified) is listed as 4576 | 14 | 4.3 | 4 | 1 | -2 | -8
COc1ccc(CC(=O)NC(C)c2nnc(SCC(=O)Nc3ccccc3F)n2C)cc1 (stereo unspecified) is listed as 4487 | 3 | 10 | -3 | 10 | 1 | -27

Screening results: PubChem BioAssay, several laboratories
